Tg IFNy HTS: inhibitors of Toxoplasma gondii growth with IFN-gamma; Toxoplasma gondii growth in IFN-gamma-treated host cells; active compounds read low; reference of the scale not given here; activity change, negative = inhibition, %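 (about 20 µM by stock and volumes)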; hit rate 3.8% among 69,000; AID 1259416;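 active = below -70%; inconclusive = fit judged invalid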;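 also: host cells are HeLa cells infected with Toxoplasma gondii; parasite growth read as luciferase light; one replicate is shown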
* marks the source's active call; other numbers are inactive results; i = inactive; ? = inconclusive.

SMILES | Tg IFNy HTS
NC(=O)C1CCN(C(=O)CSCc2c(Cl)cccc2Cl)CC1 | 59
Nc1ncnc2c1c(-c1cccc(OCc3ccccc3)c1)cn2C1CC(CN2CCCC2)C1 (stereo unspecified) | -74*
Cc1nn(C)c(C)c1-c1ccnc(NCCN2CCN(C(C)C)CC2)n1 | -2
O=C1CC(c2cccc3nsnc23)c2cc3cn[nH]c3cc2N1 (stereo unspecified) | -3
CCc1cc(N2CCNC(C(=O)O)C2)nc(N2CCCCC2)n1 (stereo unspecified) | 10
C[C@@H]1CN([C@@H](C)CO)C(=O)c2cc(NC(=O)Cc3ccccc3)ccc2O[C@@H](C)CCCCO[C@H]1CN(C)Cc1ccncc1 | ?
Cn1nc(-c2ccccc2)cc1-c1nc2c([nH]1)CC(C)(C)CNC2=O | -6
O=C1c2ccccc2S(=O)(=O)c2cc(-c3nn[nH]n3)ccc21 | 5
Cc1n[nH]c(C)c1CNC(=O)c1cc(C2CCCCC2)no1 | 23
CN(C)CCN1CCc2ncc(CN(C)Cc3ccco3)n2CC1 | 12
OC(COCC1CC=CCC1)CN(Cc1ccccc1)Cc1ccccc1 (stereo unspecified) | -60
CC(C)(C)c1nnc(NC(=O)CN2CCN(S(=O)(=O)N3CCCC3)CC2)s1 | -12
Cn1cc(S(=O)(=O)NCCCOc2ccccc2F)c(=O)n(C)c1=O | 4
CC(C)c1nccc(CN2CCN(Cc3ccc(Cl)cc3)CC2)n1 | -62
CCC(C)N1Cc2[nH]nc(COCc3cccnc3)c2C1 (stereo unspecified) | i
O=C(NCC1CCN(c2cc(-c3ccncc3)[nH]n2)CC1)c1ccc2cc[nH]c2c1 | ?
CCOC(=O)N1CCC2(CC1)OC(=O)C(C)=C2C(=O)NCCCN1CCOCC1 | 100
O=C1c2ccccc2CN1c1ccccc1 | 314
C[C@H]1CN([C@@H](C)CO)C(=O)Cc2cc(NS(=O)(=O)c3cn(C)cn3)ccc2O[C@@H]1CN(C)Cc1ccc2c(c1)OCO2 | 11
CC(=O)c1cc2ccccc2oc1=O | 12

Overlap with the part before: three compounds; new compounds follow.
SMILES | Tg IFNy HTS
O=C1c2ccccc2CN1c1ccccc1 | 314
C[C@H]1CN([C@@H](C)CO)C(=O)Cc2cc(NS(=O)(=O)c3cn(C)cn3)ccc2O[C@@H]1CN(C)Cc1ccc2c(c1)OCO2 | 11
CC(=O)c1cc2ccccc2oc1=O | 12
C[C@H](NC(=O)C[C@H]1C=C[C@H](NC(=O)c2cccnc2)[C@@H](CO)O1)c1ccccc1 | -7
C[C@@H]1CN([C@H](C)CO)C(=O)CCCn2cc(nn2)CO[C@@H]1CN(C)C(=O)NC1CCCCC1 | 132
Cn1nnc2c(NCCSc3c[nH]c4ccccc34)ncnc21 | 2
O=C(c1cccs1)N1CCC2(CCC(=O)N2Cc2ccccc2)CC1 | -6
COc1ccc2[nH]c(C)c(C(=O)CN3CCC(Oc4cnccn4)CC3)c2c1 | 9
Cc1ccc2nc(SCCC#N)nc(C)c2c1 | 74
COc1cccc2ccc(-c3ccccc3CO)nc12 | 2
Cc1noc(C)c1S(=O)(=O)Nc1ccc2c(c1)C(=O)N([C@H](C)CO)C[C@H](C)[C@@H](CN(C)C(=O)Nc1cccc3ccccc13)OCCCC[C@@H](C)O2 | 461
Cc1cccnc1Cn1nc(C2CCNCC2)n(Cc2ccccc2)c1=O | -49
O=C(CC(F)(F)F)N1C[C@@H]2[C@H](c3ccccc31)[C@@H](CO)N2C(=O)C1CCCCC1 | 8
COc1ccc(-c2nc(NC(C)C)c3ccccc3n2)cc1 | -56
O=C(Oc1cccc(-n2cnnn2)c1)c1cccs1 | 5
COc1ccc(-c2nc(NCc3cccc(Cl)c3)c3ccccc3n2)cc1 | -27
COc1ccc2c3c(n(C)c2c1)[C@H](CO)N(C(=O)Nc1ccc(F)cc1)CC31CCN(C(=O)Nc2ccc(F)cc2F)CC1 | 188
Cc1cc(C)n(Cc2nc(-c3ccc(NC(=O)COc4ccccc4)cc3)oc2C)n1 | -2
COc1cccc(-c2ccc([C@H]3[C@@H](CO)N(C(=O)Cc4ccncc4)[C@H]3C#N)cc2)c1 | 7
CCn1c(=O)c(-c2nc(-c3ccc(SC)cc3)no2)c(O)c2ccccc21 | 72
CC(O)CNC(=O)c1ccc(-c2nn(C)c(=O)c3ccccc23)cc1 (stereo unspecified) | 2
CC(=O)Nc1ccc(NS(=O)(=O)c2ccc(S(=O)(=O)c3ccccc3)s2)cc1 | -20
O=C(c1cccc(Cl)c1)N1CCC2(CCCN2CC2CC2)CC1 | 0
CCOC(=O)c1c(C)oc2ccc(O)c(CN(C)C)c12 | -15
CCS(=O)(=O)Nc1ccc2c(c1)C(=O)N(C)[C@@H]1CC[C@@H](CC(=O)N3CCN(C)CC3)O[C@H]1CO2 | 6
COc1ccc(-c2cc3c(=O)n(Cc4nc(-c5cccc(Cl)c5)oc4C)ccn3n2)cc1 | -4
Cc1nn(CCO)cc1CN1CCCN(c2ccccc2)CC1 | -1
COc1ccc(S(=O)(=O)Nc2ccc3c(c2)C(=O)N([C@H](C)CO)C[C@@H](C)[C@H](CN(C)S(=O)(=O)c2ccc(Cl)cc2)OCCCC[C@H](C)O3)cc1 | -113*
CC(c1nccs1)N(C)C(=O)c1cccc(NC(=O)C2CCCC2)c1 (stereo unspecified) | -6
O=C(NC(=S)NC12CC3CC(CC(C3)C1)C2)c1ccccc1 | 94
O=C(CN1CCOC1=O)NCc1cnn(-c2ccc(F)cc2)c1 | 3
OCC#Cc1csc(CN2CC[C@@H](c3ccc(F)cc3)[C@H](O)C2)c1 | -41
Cc1cccc(S(=O)(=O)NCCc2csc(-c3cccc(F)c3)n2)c1 | 9
CCOc1ccccc1NC(=O)N1CCc2nc(N3CCOCC3)[nH]c(=O)c2C1 | 97
CCNc1nc(NC(C)C)nc(NS(=O)(=O)c2ccc(C)cc2)n1 | -5
O=C(Nc1ccc(-c2nc(-c3ccccc3)co2)cc1)Nc1ccc(F)c(Cl)c1 | 26
CO[C@@H]1CCN(C(=O)c2ccc[nH]2)[C@H]1Cc1cccnc1 | -42
O=c1c(-c2ccccc2)nnc2sc(-c3ccc4c(c3)OCCO4)nn12 | i
C[C@@H]1C(=O)N[C@@H](c2ccc3c(c2)OCO3)CC=CC[C@H](C)Oc2ccccc2C(=O)N1C (mixture of isomers) | -29
NCCc1n[nH]c(=O)n1Cc1cccs1 | 2
COc1ccc(CN(Cc2cccnc2)C(=O)c2cc(-c3cnn(C)c3)on2)cc1 | -9
COc1ccc(CCN(C)CCN2C(=O)c3ccccc3C2=O)cc1OC | -58
O=C(NC1CCS(=O)(=O)C1)NC1CCS(=O)(=O)C1 (stereo unspecified) | 10

A section from the list above:
SMILES | Tg IFNy HTS
O=C(Nc1ccc(-c2nc(-c3ccccc3)co2)cc1)Nc1ccc(F)c(Cl)c1 | 26
CO[C@@H]1CCN(C(=O)c2ccc[nH]2)[C@H]1Cc1cccnc1 | -42
O=c1c(-c2ccccc2)nnc2sc(-c3ccc4c(c3)OCCO4)nn12 | i
C[C@@H]1C(=O)N[C@@H](c2ccc3c(c2)OCO3)CC=CC[C@H](C)Oc2ccccc2C(=O)N1C (mixture of isomers) | -29
NCCc1n[nH]c(=O)n1Cc1cccs1 | 2

Retrieved by structure from above:
SMILES | Tg IFNy HTS
COc1ccc(-c2cc3c(=O)n(Cc4nc(-c5cccc(Cl)c5)oc4C)ccn3n2)cc1 | -4
O=C(c1cccs1)N1CCC2(CCC(=O)N2Cc2ccccc2)CC1 | -6
C[C@@H]1CN([C@@H](C)CO)C(=O)c2cc(NC(=O)Cc3ccccc3)ccc2O[C@@H](C)CCCCO[C@H]1CN(C)Cc1ccncc1 | ?
Cc1noc(C)c1S(=O)(=O)Nc1ccc2c(c1)C(=O)N([C@H](C)CO)C[C@H](C)[C@@H](CN(C)C(=O)Nc1cccc3ccccc13)OCCCC[C@@H](C)O2 | 461

Additional structures follow:
SMILES | Tg IFNy HTS
COc1cc(OC)cc(-c2noc(-c3c(O)c4cc(C)ccc4[nH]c3=O)n2)c1 | 100
CCOC(=O)C1CCN(C(=O)c2oc3ccc4c(c3c2C)C(O)CC2(CCCCC2)O4)CC1 (stereo unspecified) | -81*
O=C(O)CCn1nc(Nc2ccccc2)n(-c2ccccc2)c1=S | 25
C[C@H](CO)N1C[C@H](C)[C@H](CN(C)S(C)(=O)=O)OCCCC[C@H](C)Oc2ccc(NC(=O)NC3CCCCC3)cc2C1=O | 66
O=C1NCCCCC1NS(=O)(=O)c1cc(S(=O)(=O)c2ccccc2)cs1 (stereo unspecified) | -20
CCC(c1cccnc1)N(C)Cc1ccsc1 (stereo unspecified) | 5
Cc1c(-c2ccnc(N)n2)nnn1-c1ccc(Cl)cc1Cl | -109*
O=C(Cn1c(=O)sc2ccccc21)NCc1ccco1 | 2
Cc1cnccc1NCCNC(=O)c1cn(CC2CCCNC2)nn1 (stereo unspecified) | -17
Cc1noc(C)c1S(=O)(=O)N(C)C[C@H]1OCc2ccccc2-c2ccccc2C(=O)N([C@@H](C)CO)C[C@H]1C | -22
Cc1ccc(C(=O)N(C)Cc2csc(C(C)C)n2)cc1NC(=O)C1CC1 | 111
COC(=O)c1sc(S(C)(=O)=O)c(C#N)c1-c1cc(C(C)(C)C)oc1C | 9
CC(=O)N1CC2(CCN(C(=O)c3ccccc3-n3cccc3)CC2)CC1C(=O)O (stereo unspecified) | 10
CCOC(=O)c1cnn(-c2nc3ccccc3[nH]2)c1N | 499
Cc1ccc(-c2coc(-c3ccc(NC(=O)NC4CCCC4)cc3)n2)c(C)c1 | 20
COc1ccc([C@H]2COc3c(ccc(O)c3OC)C2)c(OC)c1O | 16
COc1ccc(Br)cc1CNC(=O)c1nc(Nc2ccc(F)cc2)c2ccccc2n1 | -33
CCc1ccc(C(=O)N2CCC[C@@]3(C(=O)N(C)C)CN(c4nnc(C)o4)C[C@H]3C2)cc1 | 3
O=C(c1cccc(O)c1)N1C[C@H]2OC(=O)N(CCCc3ccc(F)cc3)[C@H]2C1 | 2
O=C(Nc1nc2c(Br)cc(Br)cc2c(=O)s1)C1CCC1 | 32

Four compounds out of the list, sorted by molecular weight, largest number first:
SMILES | Tg IFNy HTS
COc1ccc(Br)cc1CNC(=O)c1nc(Nc2ccc(F)cc2)c2ccccc2n1 | -33
CC(C)(C)c1nnc(NC(=O)CN2CCN(S(=O)(=O)N3CCCC3)CC2)s1 | -12
Cn1nnc2c(NCCSc3c[nH]c4ccccc34)ncnc21 | 2
O=C(NC(=S)NC12CC3CC(CC(C3)C1)C2)c1ccccc1 | 94

Next entries follow.
SMILES | Tg IFNy HTS
Cn1c(=O)cc(C(=O)N2CCC(c3ccc(C(=O)O)cc3)C2)c2ccccc21 (stereo unspecified) | 0
CN1CCCN(C(=O)c2cc3c(c4ccccc4n3CC3CC3)n2S(C)(=O)=O)CC1 | -28
CC(=O)Nc1cccc(-c2ncc(C)c(N)n2)c1 | 5
COC[C@H]1CCCN1Cc1cccc(C(=O)Nc2cc(C)cc(C)n2)c1 | -1
CC(=O)Nc1ccc(Cl)cc1-c1cccc(C(C)=O)c1 | -10
COc1ccccc1CN1[C@H](CO)[C@@H](c2ccccc2)C12CN(C(=O)c1cnccn1)C2 | 9
COC(=O)c1c(C)sc2cc(C(C)(C)C)sc12 | -18
COc1ccc(-c2nc(CN(c3ccccc3)S(=O)(=O)c3cccs3)c(C)o2)cc1OC | -40
C=CCN(Cc1ccccc1OC)C(C)=O | 1
COc1ccccc1NC(=O)N1C[C@@H](O)COC[C@H]2O[C@H](CC(=O)N3CCC(Cc4ccccc4)CC3)CC[C@@H]21 | -9
Cc1ccc(C)c(NC(=O)CCn2cc(-c3sccc3C)nn2)c1 | -2
O=S(=O)(Nc1cccnc1Oc1ccc(Cl)cc1)c1ccc(C(F)(F)F)cc1 | 60
CCn1c(N2CCN(CC(=O)c3c(C)n(C)c4ccc(OC)cc34)CC2)nc2c1c(=O)[nH]c(=O)n2C | -7
Cc1cccc(N(CCCC(=O)Nc2cccnc2)S(C)(=O)=O)c1 | -3
O=C(O)CN1C(=O)/C(=N\N2C(=O)CSC2=S)c2ccccc21 | 26
Cc1nc(C)c(C(=O)N2CCC(c3nc(-c4ccncc4)cc(=O)[nH]3)C2)s1 (stereo unspecified) | -7
O=C(CN1C(=O)CCc2cc(Br)ccc21)NC1CCCCCCC1 | -5
CC(C)(ONC(=O)Nc1ccccc1Cl)C(=O)O | 10
COCC1(N(C)C(=O)CCNC(=O)c2ccc(F)cc2)CC1 | 0
COc1cccc(CNC(=O)Cn2ncc3c(N4CCC(C)CC4)ncnc32)c1 | -100*
COc1cc(N2Cc3cnn(CCO)c3C2)ncn1 | 7
Cn1ccnc1-c1nccn1CCCn1ccnc1 | 7
COc1cc2c(cc1OC)-c1cc(OCc3ccccc3Cl)nc(=O)n1CC2 | 24
c1ccc2c(c1)CCC21CCN(Cc2cc3n(n2)CCNC3)CC1 | -7
Cc1ccn(CCNC(=O)COc2ncnc3ccccc23)n1 | -2
CN(C)c1ccc(C2CC(=O)Nc3c2c(-c2cccnc2)nn3C)cc1 (stereo unspecified) | -2
Cc1ccc(N2CCC3(CC2)C(c2cnn(C)c2)CC(=O)N3C)nn1 (stereo unspecified) | 9
CS(=O)(=O)N1CCc2onc(Cn3cccc3)c2C1 | -33
CCn1c(=O)c(-c2nc(-c3cccc(F)c3)no2)c(O)c2ccc(F)cc21 | -55
Cc1[nH]c2ccc(CNC(=O)C3CCCN(c4ccccn4)C3)cc2c1C (stereo unspecified) | -5
CCC1(C)Cc2c(C#N)c(N)n(-c3ccccc3)c(=S)c2CO1 (stereo unspecified) | 66
O=C(c1ccccc1)N1C[C@@H]2[C@H](c3ccccc31)[C@H](CO)N2Cc1ccccn1 | -1
C[C@@H]1CCCCO[C@@H](CN(C)C(=O)Nc2ccc(C(F)(F)F)cc2)[C@H](C)CN([C@@H](C)CO)C(=O)c2cc(NS(=O)(=O)c3cn(C)cn3)ccc2O1 | 200
N#Cc1cccc(-c2ccc([C@@H]3[C@@H](CO)N4CCCCN(Cc5ccccc5F)C[C@@H]34)cc2)c1 | -28
CCc1nc(SCC(=O)NC(c2ccncc2)c2ccccc2C)n[nH]1 (stereo unspecified) | -7
COc1ccc(-n2c(=O)c(C(=O)NCc3ccc(Cl)cc3)c(O)c3cccnc32)cc1 | 27

A portion of the library; count on the stated rates, not on these rows.
